# From PubChem BioAssay
# Rango dissoc inh – prevents RanGTP from dissociating the Rango-importin beta complex; Biochemical FRET Rango-importin beta, RanGTP-induced dissociation; Potency, µM (series often up to 46.1 µM), without a hit: at the highest dose activity change, negative = inhibition; actives 0.071% (n = 340,000); AID 540253; active means falling FRET ratio curve, often poorly fitted, with flat reads before Ran was added; inconclusive means other falling curves, or compound fluorescence or quenching; inactive means flat or rising ratio curve;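 note: potency is the fitted concentration of half-maximal effect; % of control where 0% means no effect; nearly all actives have a fitted effect of over 45% in size; -100% = wells without RanGTP and RCC1; the record marks most hits as doubtful in a second field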
#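 FRET read at 45 min, room temperature: inhibitors block the CFP/YFP signal rise when RanGTP (0.6 uM Ran, 2 mM GTP, 0.2 uM RCC1) frees Rango (0.1 uM) from importin beta (0.25 uM). Pre-read after 5 min compound exposure flags interference.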
# Rango complex inh – prevents formation of the Rango-importin beta complex; Q14974; Rango CFP/YFP FRET sensor + importin beta, 45 min; Potency, µM (series often up to 92.2 µM), without a hit: at the top dose inhibition of complex formation; actives 0.031% (n = 340,000); AID 540263; active = rising FRET ratio curve, often small or poorly fitted; inconclusive = mostly compound fluorescence or quenching in the first reads; inactive = flat curves in all reads;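 note: potency is the fitted concentration of half-maximal effect; 0% = DMSO wells and 100% = buffer wells lacking importin beta; nearly all actives have a fitted effect of over 15% in size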
# Target sequence (Q14974 whole entry, looked up): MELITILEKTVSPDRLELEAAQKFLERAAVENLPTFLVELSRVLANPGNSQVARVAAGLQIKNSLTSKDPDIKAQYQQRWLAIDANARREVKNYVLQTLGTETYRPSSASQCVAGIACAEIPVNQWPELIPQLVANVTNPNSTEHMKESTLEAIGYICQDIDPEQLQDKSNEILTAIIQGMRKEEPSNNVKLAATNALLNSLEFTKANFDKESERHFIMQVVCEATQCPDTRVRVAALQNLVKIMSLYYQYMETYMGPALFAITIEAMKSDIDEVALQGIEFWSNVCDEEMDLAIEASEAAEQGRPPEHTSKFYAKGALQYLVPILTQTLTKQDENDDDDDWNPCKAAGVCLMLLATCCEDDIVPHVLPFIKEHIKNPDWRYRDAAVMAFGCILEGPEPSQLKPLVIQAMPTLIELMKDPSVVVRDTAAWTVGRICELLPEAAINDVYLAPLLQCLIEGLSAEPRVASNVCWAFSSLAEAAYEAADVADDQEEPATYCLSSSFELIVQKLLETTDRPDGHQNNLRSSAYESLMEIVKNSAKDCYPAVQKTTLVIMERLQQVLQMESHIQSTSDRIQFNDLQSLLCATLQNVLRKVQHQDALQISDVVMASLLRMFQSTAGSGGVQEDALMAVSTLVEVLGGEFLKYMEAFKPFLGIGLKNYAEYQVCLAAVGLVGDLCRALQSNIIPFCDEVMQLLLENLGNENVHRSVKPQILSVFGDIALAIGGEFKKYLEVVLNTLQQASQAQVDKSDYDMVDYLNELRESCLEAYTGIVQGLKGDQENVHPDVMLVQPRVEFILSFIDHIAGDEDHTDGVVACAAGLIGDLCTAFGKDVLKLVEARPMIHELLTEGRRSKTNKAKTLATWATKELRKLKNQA
#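 FRET biosensor (snurportin 1 IBB flanked by EYFP and cerulean), 50 nM, with compound 5 min, then 0.125 microM importin beta in PBS, 1 mM DTT, 0.02% Tween-20, 0.1% BSA. CFP/YFP ratio read after 45 min at room temperature; pre-read flags interference.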
# GLA inh pH 4.5 – alpha-galactosidase A (human) inhibition, pH 4.5; P06280; purified enzyme, 4-MU-alpha-Gal fluorescence, pH 4.5; activity change, negative = inhibition, % at 105 µM; 230,000 tested, under 10 active; inconclusive = small, poorly fitted or top-dose-only inhibition, or a rising curve; inactive = flat fitted curve, though single readings scatter; no compound was filed as active;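 note: 0% = full activity with enzyme and -100% = basal without enzyme; dose as in the result columns while the protocol names 77 µM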
# miR-21 FLuc – miR-21 reporter, rising signal; HeLa miR-21 FLuc reporter, luciferase, 48 h; Potency, µM (highest dose often 38.3 µM), for the others: at the highest dose reporter change, positive = more light; 340,000 tested, under 10 active; AID 2288; active = well fitted rising curve with a large enough effect; inconclusive = small, poorly fitted or top-dose-only effect; inactive = no such curve, though single readings can be large or run the other way;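 note: % of control where 0% means no effect; miR-21 action dims this reporter so a rising signal means less miR-21 action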
#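 Luminescence from a firefly luciferase reporter carrying a miR-21 binding site downstream, stably expressed under a CMV promoter in HeLa cells that make miR-21 endogenously, reports miRNA modulation after 48 h compound exposure up to approximately 40uM final.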
# * = called active by the depositor; ? = inconclusive; / = not tested or not shown; & = joins results of further samples; [ ] = dose if it differs, or a comment. An excerpt (hit frequency here may not be typical).
# Sample of the layout:
Structure	Rango dissoc inh	Rango complex inh	miR-21 FLuc	GLA inh pH 4.5
Cc1c(C(=O)NCc2ccccc2)cnn1-c1ccccc1	-2%	2.4%	-26%	11
COCCOC(=O)c1[nH]c2c(c1C)C(=O)CC(c1ccc(OC)cc1)C2 (stereo not given)	1%	-5.7%	-21%	/

# All compounds of this part (from the top)
Structure	Rango dissoc inh	Rango complex inh	miR-21 FLuc	GLA inh pH 4.5
Cc1c(C(=O)NCc2ccccc2)cnn1-c1ccccc1	-2%	2.4%	-26%	11
COCCOC(=O)c1[nH]c2c(c1C)C(=O)CC(c1ccc(OC)cc1)C2 (stereo not given)	1%	-5.7%	-21%	/
Oc1ccc(Br)cc1-c1nc2cnccn2c1NC1CCCCC1	?	?	12%	1
CC(C)Oc1ccc(S(=O)(=O)N2CCOCC2)cc1NC(=O)C1CCCC1	-4%	3.5%	/	/
NNC(=O)c1cccnc1Oc1ccccc1	-13%	-1.5%	-4%	-9
CSCCC(NC(=O)OC(C)(C)C)C(=O)NC(CC(C)C)C(N)=O (stereo not given)	-17%	-3.4%	-3%	-3
CCN(CC)c1ccc(N=Cc2ccccc2[N+](=O)[O-])cc1	2%	-0.1%	26%	-2
CNc1ccccc1NC(=O)C1CCCN1C(=O)OCc1ccccc1 (stereo not given)	0%	3.3%	2%	/
CCCC12CN3CC(C)(CN(C1)C3c1ccc(OC)cc1)C2=O (stereo not given)	-7%	3.0%	-2%	8
CCC(C)(C#CCN1CCCCC1)OC(C)=O (stereo not given)	0%	0.4%	-4%	-3
Cn1c(N)c(C(=O)Nc2ccc3ccccc3c2)sc1=S	1%	0.5%	-50%	2
CC1(C)NC(=O)N(CC(=O)OCC(=O)c2ccc(F)cc2)C1=O	7%	-0.9%	/	/
COc1ccc(-c2nn(CCC#N)cc2C(=O)Nc2cccc(C(=O)O)c2)cc1OC	30%	0.8%	-2%	/
Cc1cccc(C)c1N1CCN(C(=O)Nc2ccc3c(c2)OCCO3)CC1	26%	4.3%	-30%	-16
COCc1ccc(C(=O)N2CCc3c([nH]c4ccccc34)C2c2ccccn2)s1 (stereo not given)	0%	-0.9%	13%	0
COc1cccc(NC(=O)NNC(=O)COc2ccc3ccccc3c2)c1	20%	0.9%	1%	/
CC(C)C(OC(=O)CN1C(=O)c2ccccc2C1=O)C(=O)NC1CCCC1 (stereo not given)	-19%	-0.7%	0%	/
COc1cccc(C(=O)Nc2ccc(S(=O)(=O)Nc3onc(C)c3C)cc2)c1	-15%	-0.6%	1%	7
Cc1ccccc1-n1c(SCc2c(C)noc2C)nnc1-c1c[nH]c2ccccc12	4%	?	8%	1
COC1=C(Nc2ccccc2OC)C(=O)c2ccccc2C1=O	9%	-1.1%	3%	0
O=C(c1ccc(Cl)cc1)C1CCN(C(=O)C2CC2)CC1	-5%	5.0%	-5%	0
CCOC(=O)c1sc(NC(=O)CSc2nnc(C(C)C)n2C)nc1C	6%	-0.6%	-9%	2
Cc1ccc(/C=N/N2CCN(c3ccc(Cl)cc3)CC2)o1	-6%	-0.6%	1%	5
Nn1c(SCc2cc([N+](=O)[O-])cc3c2OCOC3)nnc1-c1cccnc1	-4%	-0.7%	0%	-6
O=C(NCCN1CCOCC1)c1cc(Sc2ccccc2Cl)nc2ccccc12	/	/	-10%	-3
O=C(CSc1nnc(CNC(=O)c2cccs2)o1)Nc1ccccc1C(F)(F)F	?	-1.2%	4%	/
CC(=O)c1cccc(NC(=O)CSCc2ccc(Br)cc2)c1	22%	-2.0%	-4%	-1
CC(OC(=O)C1CSC2(c3ccc(F)cc3)CCC(=O)N12)C(=O)NC(N)=O (stereo not given)	16%	0.2%	1%	8
Cc1ccc(N(CC(=O)Nc2ccc3c(c2)OCCO3)S(=O)(=O)c2c(C)n[nH]c2C)cc1	13%	-0.2%	3%	-4
CCc1c(C(=O)N/N=C/c2cn[nH]c2-c2ccc(F)cc2)csc1C	25%	-1.5%	-1%	-16
Cc1ccc(-c2csc(NC(=O)CCCc3cccs3)n2)cc1	8%	0.3%	1%	-4
Cc1nc2ncnn2c(C)c1Cc1ccc(Cl)cc1F	12%	-4.5%	-8%	-7
CN(C)S(=O)(=O)N1CCC(Oc2ccc(C(=O)NC3CCCCC3)cc2)CC1	-2%	-1.6%	-2%	-1
Cc1cccc(NCCC(=O)c2ccc(Br)cc2)c1	0%	-2.5%	-7%	0
CN(Cc1ccon1)C(=O)CC1C(=O)NCCN1Cc1ccc(F)c(F)c1 (stereo not given)	-8%	?	0%	/
CCOC(=O)c1cc(CC)sc1NC(=O)COC(=O)c1ccccn1	-7%	-2.2%	/	/
Cc1ncc(CO)c2c1Oc1nc(-c3ccccc3)nc(SCC(=O)Nc3cccc(O)c3)c1C2	2%	-1.5%	-1%	/
CCOc1ccc(S(=O)(=O)N2CCCCC2)cc1NC(=O)CN1CCCC1c1cccs1 (stereo not given)	-18%	-1.3%	/	/
COCCN(C(=O)Cc1ccc(S(=O)(=O)N2CCOCC2)s1)c1c(N)n(CC(C)C)c(=O)[nH]c1=O	-14%	?	/	/
CN(CC(=O)N1CCCC1)S(=O)(=O)c1ccc2ccccc2c1	5%	-1.5%	-4%	4
CC1(C)CC(=O)C2=C(C1)Nc1ccccc1NC2c1ccc2c(c1)OCO2 (stereo not given)	8%	?	-4%	-7
CC1=CC(C)(C)N2C(=O)C3(C(C#N)=C(N)OC4=C3C(=O)CC(C)(C)C4)c3cccc1c32 (stereo not given)	/	/	1%	7
CCn1c(SCC(=O)Nc2sc3c(c2C(N)=O)CCC(C)C3)nnc1-c1ccco1 (stereo not given)	-16%	0.3%	-1%	-1
CCN(CC)CCCNC(=O)c1cc(-c2cccc(Cl)c2)on1	-5%	-3.7%	-15%	4
N#CCSc1nnc(SCC#N)s1	7%	-0.7%	4%	3
CCN1C(=O)N[C@@H](c2ccc(Br)cc2)C(C(=O)OC)=C1C	1%	0.3%	-2%	-3&9
COc1nonc1NC(=O)CSc1nc2ccccc2[nH]1	3%	5.5%	0%	1
Nc1c(N)c2ccccc2oc1=O	-2%	-3.9%	-12%	8
CC(/C=C/c1ccccc1)=N/NC(=O)c1nc2nc(C)cc(C)n2n1	4%	-0.3%	-2%	0
O=C1CCC(C(=O)Nc2cc(C(F)(F)F)ccc2-n2cncn2)=NN1	-8%	0.2%	0%	/
COc1cccc(CN2CCN(C(=O)c3cc(-c4cccnc4)nc4ccc(C)cc34)CC2)c1	4%	-3.6%	1%	1
O=C(Nc1ccc(Cc2ccncc2)cc1)C1CC1	11%	1.0%	1%	2
Cc1ccc(C(=O)Cn2c(=N)n(N)c3ccccc32)cc1	3%	3.6%	-43%	/
CC1=C(C(=O)Nc2ccccc2F)C(c2ccsc2)C2=C(CC(c3ccccc3)CC2=O)N1 (stereo not given)	?	?	16%	9
O=c1[nH]c(=S)[nH]c2c1C(c1ccc(Br)cc1)c1c([nH]c(=S)[nH]c1=O)O2	11%	-6.0%	-5%	/
CC(=O)c1ccc(S(=O)(=O)N(CC(=O)NC2CC2)Cc2ccc(F)cc2)cc1	0%	-3.8%	/	/
CCOc1ccc(Nc2ccc(S(=O)(=O)N3CCN(C)CC3)cc2[N+](=O)[O-])cc1OCC	-3%	3.0%	/	/
Cc1ccnc(NC(c2ccccc2O)c2oc(CO)cc(=O)c2O)c1 (stereo not given)	-2%	-0.8%	-3%	9
O=C(COc1ccc(Cl)cc1Br)NNC(=O)C(=O)N1CCCCC1	1%	2.9%	-1%	7
CC(N=C1NS(=O)(=O)c2ccccc21)C(=O)NCc1ccc(F)cc1 (stereo not given)	1%	2.2%	/	/

# Next section:
Structure	Rango dissoc inh	Rango complex inh	miR-21 FLuc	GLA inh pH 4.5
O=C(NCCc1ccccc1)C(=O)NCC1OCCN1S(=O)(=O)c1ccc(Br)cc1 (stereo not given)	-16%	3.1%	15%	/
O=C(/C=C/c1cccs1)N1CCN(c2ccc(O)cc2)CC1	10%	3.3%	-4%	-8
O=C(NNc1cc(C(F)(F)F)nc2ccccc12)Nc1cccc(Cl)c1	-9%	2.8%	?	-8
CCOC(=O)c1[nH]c(C)c(CN(CCc2ccc(OC)c(OC)c2)C(=O)CCCC(=O)O)c1C	9%	1.6%	0%	-1
CCOCC(=O)Nc1cc([N+](=O)[O-])ccc1C	3%	-1.4%	3%	-8
CCCCC1=CC2=CC(=O)C(C)(OC(=O)CC)C(=O)C2=CN1c1cccc(C#N)c1 (stereo not given)	?	?	/	-1
O=C1C(Cl)=C(Nc2ccc3cn[nH]c3c2)C(=O)c2ccccc21	-8%	0.5%	?	2
CC1CCOC2(O1)C(=O)N(CN1CCN(c3ccccc3F)CC1)c1ccccc12 (stereo not given)	-7%	0.1%	0%	-1
O=C(CCCn1c(=O)[nH]c2ccccc2c1=O)NCCSCc1ccccc1	31%	-2.4%	1%	2
O=C(NCc1cccs1)c1nc2ncccn2n1	?	0.0%	0%	7
CCc1nnc(NC(=O)C2CCN(C(=O)c3ccccc3C)CC2)s1	-1%	-1.3%	/	/
O=C1c2ccccc2C(=O)N1CCOCCN1C(=O)c2ccccc2C1=O	-10%	4.7%	-2%	3
Nc1ccc(S(=O)(=O)c2ccc(N)c(N)c2)cc1	-5%	1.1%	2%	6[21.1 µM]
CC12CCC(=O)N1C(C(=O)Nc1ccccc1N1CCCCC1)CS2 (stereo not given)	4%	-1.0%	/	/
Cc1ccc2c(c1)Sc1c(ccc3ccccc13)N2	?	?	-56%	-3
Cn1ccc(C(=O)Nc2sc3c(c2C(N)=O)CCCCC3)n1	0%	1.3%	-18%	/
COc1cc(C(=O)Nc2ccc(C(=O)NCC3CCCO3)cc2)cc(OC)c1OC (stereo not given)	-3%	-3.5%	3%	/
CCN1CCN(Cc2ccc(NC(=O)c3cc(NC(=O)c4ccno4)cc(OC)c3)cc2C(F)(F)F)CC1	0%	-1.8%	11%	-4
COc1cccc(CC(=O)Nc2ccc3nc(C)sc3c2)c1	-8%	0.7%	-39%	0
Cc1cccc(N(CC(=O)NCC2CCCO2)C(=O)CCC(=O)Nc2nccs2)c1 (stereo not given)	0%	-1.4%	2%	/
O=C(Nc1ccccc1N1CCCCC1)c1ncoc1-c1ccc(F)cc1	-2%	0.1%	-5%	0
O=C1NC(=O)c2cc([N+](=O)[O-])cc3cccc1c23	-10%	-4.1%	1%	/
Cc1cccc2c1ncc1c(=O)n(-c3ccccc3)[nH]c12	-12%	-0.5%	-51%	/
CC1CCN(S(=O)(=O)CCNC(=O)c2ccc(F)cc2)CC1	14%	-1.9%	/	/
CN(C)C(=O)CCC(=O)N1CCCC(C(=O)c2ccc(C(F)(F)F)cc2)C1 (stereo not given)	0%	-1.0%	3%	/
COC(=O)c1cc2sc(Cl)cc2n1Cc1nc(-c2ccccc2)oc1C	5%	-0.6%	-2%	-6
Cc1cc[n+](-c2[nH]c(=O)sc2/C=N/NC([S-])=Nc2ccccc2)cc1	5%	0.7%	-8%	-11
CCOC(=O)C1CCN(c2ncnc3c2c(-c2ccccc2)cn3-c2ccc(C)cc2)CC1	-17%	-1.9%	-1%	-1
CN1/C(=C/C2CC(=O)N(c3cccc4ccccc34)C2=O)C(C)(C)c2ccccc21 (stereo not given)	0%	0.0%	0%	-2
CC(C)(C)NC(=O)CN(C(=O)CNS(=O)(=O)c1ccccc1)c1ccc2c(c1)OCCO2	9%	-0.8%	-8%	-7
COc1ccc(-c2cc(C(=O)N3CCOCC3)c3cc(C)ccc3n2)cc1	2%	2.4%	-2%	/
C[C@H]1CC[C@]2(O[C@@H](CCO)C[C@H](O)[C@H]2O)O1	16%	-5.2%	/	/
COc1cccc(N/C=C/C(=O)c2ccc(Br)cc2)c1	?	?	/	/
